# Ba CapD inh = Bacillus anthracis CapD inhibitors, primary screen, biochemical, fluorescence intensity; purified CapD enzyme, fluorescence intensity read-out; stronger effect = lower value; some hits fall short of the stated cut; z-score (no concentration beside the values); hit rate 0.23% among 140,000; AID 492967, 2010;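 active = z-score under -4 in either of two replicates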;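 also: stock transfer was 100 nL into about 40 µL; score is relative to mean and spread of the plate; one replicate is shown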
# AID504770 = growth inhibition of E. coli YBA685, primary screen, V. cholerae RctB inhibitors. hit rate 0.27% among 130,000. E. coli YBA685 rctB-dependent plasmid, OD600 growth, 3 h; stronger effect = lower value. z-score (test concentration not listed). AID 504770, 2011;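 active = z-score under -2 on both plates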;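 also: wells of about 30 µL received 100 nL stock; score is relative to mean and SD of the test wells; the first replicate is given; strong numbers were not always called active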
# Active calls of the source: *; i = inactive; · = no result given.
# Values run as follows: Ba CapD inh, AID504770
- O=C(Nc1cccc(C(=O)NC2CC2)c1)c1cccc(-n2cccc2)c1
    ·, 0.6
- C=CCN=CC1=C(O)CCCC1=O
    ·, -0.35
- CC1(c2ccc(Cl)cc2Cl)OCC(Cn2cncn2)O1 (stereo not given)
    ·, -0.25
- O=C(Nc1ccc(C(F)(F)F)cc1)c1cc(S(=O)(=O)N2CCc3ccccc32)ccc1F
    0.035, ·
- O/N=C(/c1ccccc1)c1ccccn1
    -0.25, 1.45
- COc1cc(OC)c2ccc(=O)oc2c1
    0.09, 0.1
- CC(C)(C)C(=O)CSc1nnc(-c2ccncc2)o1
    -0.17, 0.35
- Cc1cc(C)n2c(SCCN3C(=O)c4ccccc4C3=O)nnc2n1
    -0.175, -0.35
- CCOC(=O)c1ccc(N2CCN(c3ccccc3F)CC2)c(NC(=O)Nc2ccc(CC)cc2)c1
    9.14, -0.2
- O=C(N/C=N\O)C1=NOC(CNc2ncc(C(F)(F)F)cc2Cl)C1 (stereo not given)
    -0.515, ·
- CCCN(CCC)C(=O)CSc1nc2cc(C(=O)NCCOC)ccc2c(=O)n1Cc1ccco1
    0.36, ·
- Cc1ccc(OCc2nnc(SCC(=O)Nc3cccc4c3OCO4)n2-c2ccccc2)c2c1CCC2
    0.26, ·
- O=C(O)c1sc(=S)sc1C(=O)O
    ·, -0.15
- CC1Cc2ccccc2N1C(=O)COC(=O)/C=C/c1ccc2c(c1)OCO2 (stereo not given)
    ·, 2.4
- COc1cc(OC)nc(CCC(=O)NCCN2CCOCC2)n1
    -0.36, ·
- O=C(O)c1cccc2cccc(S(=O)c3cccc4cccc(CO)c34)c12 (stereo not given)
    -0.325, -0.25
- CCC(Sc1nc(N)cc(=O)[nH]1)C(=O)NC(C)c1ccccc1 (stereo not given)
    ·, -0.95
- COc1ccc(C(CNC2CC3CC=CC32)N(C)C)cc1OC (stereo not given)
    ·, 1
- O=[N+]([O-])c1ccc2c(c1)[nH]c1nc3nc(-c4ccc(Br)cc4)cn3nc12
    -0.79, ·
- Cc1ccc(N2CCN(C(=O)OCCc3ccc(Cl)cc3Cl)CC2)c(C)c1
    0.24, ·
- CC(C)Cn1c(SCC(=O)c2ccc3c(c2)NC(=O)CO3)nc2ccccc2c1=O
    ·, 1.5
- O=C(OCC(=O)N1CCCC1)c1ccc(Oc2ccccc2)cc1
    -1.17, -1.15
- O=C(Nc1ccon1)c1cc(-c2ccccc2)nc2ccccc12
    10.6, -1
- COc1ccc2c(c1)N(C(=O)NC1CCCCC1)C(C)(C)CC2C (stereo not given)
    0.8, 0.85
- CCc1ccc(OC(C)C(=O)N(Cc2ccccc2)C2CCS(=O)(=O)C2)cc1 (stereo not given)
    -0.535, -0.05
- CCOC(=O)c1c(C)c(-c2ccccc2)n(CC(=O)NCc2cccs2)c1C
    0.23, -0.2
- FC(F)(F)c1ccc2c(c1)[nH]c(=S)n2C1CC1
    ·, -0.6
- c1ccc(N=c2scc(-c3cccs3)n2N=C2CCCC2)cc1
    ·, 1.65
- Cc1ccccc1-n1c(=O)cc(NCCCn2ccnc2)[nH]c1=O
    -0.265, 0.05
- Nc1c(C(=O)Nc2ccc([N+](=O)[O-])cc2)sc2nc3c(c(-c4cccs4)c12)CCCC3
    -0.305, ·
- COCC(C)n1c(C)cc(C(=O)COC(=O)c2cc(-c3ccco3)nc3ccccc23)c1C (stereo not given)
    ·, 1.3
- COc1ccccc1NC(=O)Cn1cnc2sc(C(=O)N3CCN(c4ccc(F)cc4)CC3)c(C)c2c1=O
    -0.33, ·
- N#Cc1ccc(C(=O)N2CCCSC2=NCCc2ccccc2)cc1
    ·, -0.2
- CNC(=O)Nc1ccc(C(=O)O)cc1
    0.41, 0.15
- CCCC(=O)Nc1nc(-c2ccc(F)cc2)cs1
    0.05, 1.5
- CCN(CC)c1nc2n(c(=O)n1)CCO2
    ·, -0.05
- O=C(NCC(=O)N1CCN(c2cccc(C(F)(F)F)c2)CC1)c1ccccc1
    ·, -0.55
- CCC(=O)c1ccc(OC(=O)C(C(C)C)N2C(=O)c3ccccc3C2=O)cc1 (stereo not given)
    -0.095, 0.05
- CCOC(=O)CSc1nc2c(c(=O)n1-c1ccccc1OC)SCC2
    -0.255, ·
- FC(F)(F)c1ccc(-c2noc(CN3CCCC3)n2)cc1
    ·, 0.15
- CCOc1ccc(C(=O)NN2C(=O)c3c(CC)nc4ccccc4c3C2=O)cc1
    -0.015, ·
- CCOc1ccc(-n2c(SCC(=O)NCCc3ccc(OC)c(OC)c3)nc3n[nH]c(C)c3c2=N)cc1
    -0.07, ·
- CC1(C)Oc2ccc(NC(=O)C3(c4ccccc4)CCCC3)cc2O1
    0.57, -0.3
- CC(C)CNc1nc2c(c(=O)[nH]c(=O)n2C)n1CC(C)O (stereo not given)
    ·, -0.35
- O=C(Nc1nc(-c2cc3ccccc3oc2=O)cs1)C1CC1
    i, 0.35
- CC(C)(C)C(=O)OCC(=O)c1ccc(C(F)(F)F)cc1
    -0.055, 1
- Nn1c(Cc2ccccc2F)nnc1SCc1cc(=O)n2ccsc2n1
    ·, 1.15
- Clc1ccc(C2=CC(c3ccccc3)n3ncnc3N2)cc1 (stereo not given)
    13.3, 0.6
- FC(F)(F)c1nc2ccc(Oc3ccc4nc(C(F)(F)F)[nH]c4c3)cc2[nH]1
    0.155, -0.3
- CCOCC(=O)Nc1ccccc1C(C)C
    -0.625, 2.15
- Cc1ccc(-n2nc(C)c(C3(O)C(=O)N(C)c4ccccc43)c2N)cc1 (stereo not given)
    ·, -0.5
- CN(C)C(=O)Nc1cnc2ccccc2c1
    ·, -0.55
- COCc1cc(C)nc2n[nH]c(N)c12
    -0.605, -0.3
- O=C(Cc1ccccc1)Nc1ccc(-c2nnc(-c3ccco3)o2)cc1
    42, -0.65
- CC1CCCC/C1=N/NC(=O)CNc1ccc(Cl)cc1 (stereo not given)
    0.07, 1.8
- O=C(O)c1ccc(C(F)(F)F)cc1
    -0.61, 2.35
- CC(C)CC(C)c1cc(N)nc2nc3ccccc3n12 (stereo not given)
    13.2, 0.45
- CCc1ccccc1N(CC(=O)Nc1ccc(S(=O)(=O)N2CCOCC2)cc1)S(=O)(=O)c1ccccc1
    -0.865, ·
- O=[N+]([O-])c1ccc(-c2nc(-c3ccccc3)c(-c3ccc(F)cc3)[nH]2)cc1
    -0.5, ·
- N#Cc1cccc(C#N)c1-n1cccc1
    0.555, -0.95

# New compounds follow.
# Values run as follows: Ba CapD inh, AID504770
- CCOC(=O)C1=C(O)/C(=C/c2ccc(OC)c(OC)c2)SC1=Nc1ccc(Cl)cc1
    0.715, ·
- Cc1cc(C(F)(F)F)c(C#N)c(N)c1C#N
    110, -0.75
- N#CC1=C(N)Oc2cc(N)ccc2C1c1cccnc1 (stereo not given)
    -0.19, -0.35
- CCOc1ccccc1-c1nc(=S)[nH][nH]1
    ·, -0.8
- COC(=O)c1ccc(NC(=O)Cn2cc(OC)c(=O)cc2CN2CCCCC2)cc1
    ·, 0.75
- CCCN(C(=O)[C@H]1[C@@H]2C[C@@H]3[C@H]1C(=O)O[C@@H]3C2)c1c(C)cc(C)cc1C
    -0.11, -0.8
- O=c1c(N2CCC3(CC2)OCCO3)csc2ccccc12
    -1.67, -1.15
- COC(=O)c1ccc(CSc2nc3c(c(=O)n2-c2ccccc2)SCC3)o1
    -1.23, 0.55
- COc1ccc(C(=S)N2CCCCC2)cc1
    ·, -0.85
- COC(=O)c1sccc1NC(C)=O
    0.675, -0.05
- O=C(Cc1cccc(C(F)(F)F)c1)NCC(c1ccco1)N1CCCCC1 (stereo not given)
    ·, -0.4
- Clc1ccc(C(c2ccccc2)N2CCNCC2)cc1 (stereo not given)
    0.135, 2.6
- CC1Cc2ccccc2N1C(=O)COc1cccc2c1OC(C)(C)C2 (stereo not given)
    ·, 0.1
- CN(C)c1c(F)cc(-c2nn[nH]n2)cc1F
    -0.715, 0.05
- CCCCNC(=O)CSc1nc2ccccc2c(=O)n1CCc1ccccc1
    -0.435, ·
- Cc1cccc(OCC(=O)NS(=O)(=O)c2ccc(Cl)cc2)c1
    0.375, -0.35
- CN1C(=O)CC(c2ccccc2)S(=O)(=O)c2ccccc21 (stereo not given)
    -0.895, 2.1
- COC(=O)C1Cc2c([nH]c3ccccc23)C(c2ccccc2)N1 (stereo not given)
    14.4, ·
- CCCc1nnc(NC(=O)Cc2coc3cc(C)ccc23)s1
    0.315, 0.5
- Cc1ccc(/C=c2\sc3ncnn3c2=O)o1
    0.64, -0.15

# Rewritten tab-delimited: part of the list above.
SMILES	Ba CapD inh	AID504770
CCOC(=O)CSc1nc2c(c(=O)n1-c1ccccc1OC)SCC2	-0.255	·
FC(F)(F)c1ccc(-c2noc(CN3CCCC3)n2)cc1	·	0.15
CCOc1ccc(C(=O)NN2C(=O)c3c(CC)nc4ccccc4c3C2=O)cc1	-0.015	·

# The list goes on.
# Values run as follows: Ba CapD inh, AID504770
- CC1=CCCC2C1(C)CCC(C)C2(C)CC/C(C)=C/C[n+]1cn(C)c2c(N)ncnc21 (stereo not given)
    ·, 0.2
- N#Cc1ccccc1COC(=O)c1ccccn1
    -0.11, -0.25
- O=C(CSc1nccc(=O)[nH]1)NC1CCCCCC1
    ·, 1.3
- Fc1ccc(-c2nc(-c3ccc4c(c3)sc3ccccc34)c(-c3ccccc3)[nH]2)cc1
    -0.105, ·
- CC(C)CC1NC(=O)CNC1=O (stereo not given)
    -1, ·
- CCOC(=O)N1CCN(S(=O)(=O)c2cccc3ccc(C)nc23)CC1
    -0.465, -0.9
- Cc1nc(-c2cccs2)no1
    -1.89, -0.85
- Nc1nc(=S)n2c(n1)oc1ccccc12
    -0.115, -0.95
- CCOc1cc2c(cc1OCC)C1C(C(=O)N(C)Cc3ccccc3)c3ccccc3C(=O)N1CC2 (stereo not given)
    -0.515, -0.65
- COc1ccc(C2N(c3ccc(OC)cc3)C(=O)C3CCCN32)cc1 (stereo not given)
    -0.21, -0.8
- Cc1ccc2nc(-c3ccc(NS(C)(=O)=O)cc3)sc2c1
    ·, 0.1
- O=C(Cn1cnc2c(nc3n2CCCCC3)c1=O)N1CCCCCC1
    0.3, 0.35
- O=S(=O)(c1ccc(Br)cc1)N1CCN(c2ccccc2Cl)CC1
    0.41, ·
- Cc1[nH]nc2nc(C(F)(F)F)cc(C(F)(F)F)c12
    8.82, -0.05
- O=C(NCCCn1ccnc1)c1ccc2c(=O)n(-c3ccc(F)c(Cl)c3)c(=S)[nH]c2c1
    -0.48, ·
- Cc1nn(-c2ccccc2)c2sc(-c3n[nH]c(=S)o3)cc12
    74.7, 1.5
- c1ccc(Cn2ncc3c(N4CCCCC4)ncnc32)cc1
    ·, -0.45
- CC(C)(CO)NC(=O)C(c1ccccc1)c1ccccc1
    0.405, -0.1
- CN(C)c1ccc(N2C(=O)/C(=C/c3ccc(-c4cc(Cl)ccc4Cl)o3)C=C2c2ccccc2)cc1
    0.925, ·
- CC(CC(=O)N1CCN(C(=O)c2ccccc2)CC1)c1ccccc1 (stereo not given)
    ·, 0.2
- Cc1ccc(N2C(=O)CC(Sc3nc(C)c(C)c(C)c3C#N)C2=O)cc1 (stereo not given)
    -0.465, ·
- COc1ccc(N2CCN(CCCNC(=O)C3=C(C)C(=O)OC34CCCCC4)CC2)cc1
    -0.085, 0.95
- N#Cc1c(-c2ccccc2)cc(-c2cccs2)nc1SCC(O)CN1CCOCC1 (stereo not given)
    9.05, 0.5
- COc1ccc(CNCCN2CCOCC2)cc1
    ·, -0.4
- O=C(CSc1nc2ccccc2[nH]1)NC1CCS(=O)(=O)C1 (stereo not given)
    ·, -0.6
- COC(=O)c1cc(-c2ccccc2)sc1NC(=O)C1CCCO1 (stereo not given)
    31.3, -0.85
- COC(=O)c1c(C)[nH]c(C(=O)O)c1C
    ·, -0.1
- CC(C)c1c(O)c2ccccc2[nH]c1=O
    ·, -0.4
- CCOC(=O)C1=NNCC1C(=O)OCC (stereo not given)
    61.8, 0.25
- CCOC(=O)C(C)Sc1nnc(Cn2c(=O)sc3ccccc32)n1-c1cccc(Cl)c1 (stereo not given)
    0.065, 0.2
- CSc1nc(-c2ccccc2)nc(Sc2ccccn2)c1C#N
    0.865, 0.8
- Cc1cc2ncc(C(=O)c3ccccc3O)cn2n1
    0.16, 2.25
- Cc1nn(-c2ccccc2)c(Cl)c1C(=O)NCCN(C)C
    -0.22, -0.55
- O=C(Nc1ccc(C(F)(F)F)cc1)NC1CCN(c2ncc(C(F)(F)F)cc2Cl)CC1
    -0.53, ·
- Cn1c(CCC(=O)NNC(=O)Cn2cnc(Cl)c2Cl)nc2ccccc21
    0.235, ·
- CCN(C(=O)CN1C=NS(=O)(=O)c2ccccc21)c1ccccc1
    0.165, 0.5
- CCCCc1cc(=O)oc2cc(C)cc(O)c12
    1.48, 0.6
- Cc1ncc(CSCC(=O)Nc2cc(C(F)(F)F)ccc2Cl)c(CO)c1O
    10, 2.15
- CCCCOC(=O)Oc1cc2oc(=O)sc2cc1Br
    -0.205, -0.05
- COc1ccc(N2CC(C(N)=O)CC2=O)cc1 (stereo not given)
    0.18, -0.7

# In a second layout: entries from further up.
SMILES	Ba CapD inh	AID504770
COC(=O)c1c(C)[nH]c(C(=O)O)c1C	·	-0.1
CC(C)c1c(O)c2ccccc2[nH]c1=O	·	-0.4
CCOC(=O)C1=NNCC1C(=O)OCC (stereo not given)	61.8	0.25
CCOC(=O)C(C)Sc1nnc(Cn2c(=O)sc3ccccc32)n1-c1cccc(Cl)c1 (stereo not given)	0.065	0.2

# Other results.
# Values run as follows: Ba CapD inh, AID504770
- CN(C)c1ccc(/C=C2\Cc3ccccc3C2=O)cc1
    -0.4, 1.8
- Cc1ccc(S(=O)(=O)N2CCSc3ccccc32)cc1
    0.03, -0.8
- Cc1c(CN2CCC(N3CCCCC3)CC2)sc2ccccc12
    -0.175, 0.05
- COc1ccccc1N1CCN(S(=O)(=O)c2ccc(F)c(C(=O)Nc3ccc(Cl)cc3F)c2)CC1
    -0.47, ·
- COC(=O)c1cc(Br)c(O)c(Br)c1
    0.485, 0.5
